Bioassay records deposited in PubChem BioAssay by Broad Institute.
A1 apoptosis 2 – A1 inhibitors via caspase activation, primary screen, cell-based, luminescence, HTS, two replicates | AID 2465, 2010 | caspase activation, % (no concentration beside the values) | MEF A1-2A-BIM cells, caspase-Glo luminescence, 3 h; percent of clofoctol response, DMSO zero | 24,000 tested, under 10 active; in the data active = caspase activation above about 5.9%;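 also: wells of about 30 µL received 50 nL stock; the first replicate is given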
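System: mouse embryonic fibroblasts co-expressing A1 and BIM (A1-2A-BIM), primed for A1 dependence; amount: 2500 cells/well; doses: 50 nL pinned compound; schedule: cells settled overnight, compound exposure 3 h at 37 °C, 5% CO2; detection: Caspase-Glo 3/7 luminescence, 1 h at room temperature; read-out: Caspase-3/7 activation, seen as rise in luminescence signal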
Starred values were filed as active, the others as inactive.

cpd | Compound | A1 apoptosis 2
1 | C[C@@H]1CCCCO[C@H](CN(C)S(=O)(=O)c2ccc(Cl)cc2)[C@@H](C)CN([C@@H](C)CO)C(=O)c2cc(NS(=O)(=O)c3ccc(Cl)cc3)ccc2O1 | -0.3
2 | C[C@@H]1CCCCO[C@H](CN(C)C(=O)Cc2ccccc2)[C@H](C)CN([C@@H](C)CO)C(=O)c2cc(NC(=O)CCC(F)(F)F)ccc2O1 | -0.7
3 | COc1ccc(CN(C)C[C@@H]2Oc3c(NC(=O)c4ccncc4)cccc3C(=O)N([C@@H](C)CO)C[C@H]2C)cc1 | -1.5
4 | C[C@@H]1CN([C@@H](C)CO)C(=O)c2cc(NS(C)(=O)=O)ccc2O[C@@H](C)CCCCO[C@@H]1CN(C)S(=O)(=O)c1cccs1 | 0.2
5 | COc1ccc(NC(=O)N(C)C[C@@H]2Oc3ccc(NS(=O)(=O)c4ccc(C)cc4)cc3C(=O)N([C@@H](C)CO)C[C@@H]2C)cc1 | 0.2
6 | COc1ccc(S(=O)(=O)N(C)C[C@H]2OCCCC[C@@H](C)Oc3ccc(NS(=O)(=O)c4ccc(C)cc4)cc3C(=O)N([C@@H](C)CO)C[C@H]2C)cc1 | 0.4
7 | C[C@H](CO)N1C[C@H](C)[C@@H](CN(C)C(=O)Cc2ccccc2)OCCCC[C@H](C)Oc2ccc(NS(=O)(=O)c3cccs3)cc2C1=O | -0.5
8 | C[C@H]1CCCCO[C@H](CN(C)CC2CCCCC2)[C@@H](C)CN([C@@H](C)CO)C(=O)c2cc(NC(=O)c3ccccc3)ccc2O1 | 0.7
9 | Cc1noc(C)c1S(=O)(=O)N(C)C[C@@H]1OCCCC[C@H](C)Oc2ccc(NC(=O)Nc3ccc(F)cc3)cc2C(=O)N([C@H](C)CO)C[C@H]1C | 0.9
10 | C[C@@H]1CN([C@@H](C)CO)C(=O)c2cc(NS(=O)(=O)c3ccc(Cl)cc3)ccc2O[C@@H]1CN(C)Cc1ccccc1 | -0.1
11 | CNC[C@H]1OCCCC[C@@H](C)Oc2ccc(NC(=O)Nc3cccc4ccccc34)cc2C(=O)N([C@H](C)CO)C[C@@H]1C | -0.4
12 | COc1ccc(S(=O)(=O)Nc2ccc3c(c2)C(=O)N([C@@H](C)CO)C[C@@H](C)[C@@H](CN(C)Cc2ccc(Cl)c(Cl)c2)OCCCC[C@@H](C)O3)cc1 | -1.6
13 | C[C@H]1CN([C@@H](C)CO)C(=O)Cc2cc(NC(=O)C3CC3)ccc2O[C@@H]1CN(C)Cc1ccc(Cl)c(Cl)c1 | -0.8
14 | CC(C)OC(=O)N(C)C[C@@H]1OCc2cnnn2CCCC(=O)N([C@@H](C)CO)C[C@@H]1C | -0.7
15 | C[C@@H]1CN([C@@H](C)CO)C(=O)Cc2cc(NC(=O)Nc3ccc(F)cc3)ccc2O[C@H]1CN(C)S(=O)(=O)c1ccc(F)cc1 | -0.2
16 | C[C@@H]1CCCCO[C@H](CN(C)C(=O)Nc2ccc3c(c2)OCO3)[C@@H](C)CN([C@H](C)CO)C(=O)c2cc(NS(=O)(=O)c3cn(C)cn3)ccc2O1 | 0.5
17 | COc1cccc(CN(C)C[C@@H]2OCc3cn(nn3)CCCC(=O)N([C@@H](C)CO)C[C@@H]2C)c1 | -0.6
18 | CC(C)NC(=O)N(C)C[C@@H]1OCCCC[C@H](C)Oc2ccc(NS(=O)(=O)c3cn(C)cn3)cc2C(=O)N([C@@H](C)CO)C[C@@H]1C | -1.1
19 | C[C@@H]1CCCCO[C@H](CN(C)CC2CCCCC2)[C@H](C)CN([C@@H](C)CO)C(=O)c2cc(NS(C)(=O)=O)ccc2O1 | -1.0
20 | C[C@@H]1CN([C@H](C)CO)C(=O)Cc2cc(N(C)C)ccc2O[C@H]1CN(C)Cc1ccc2c(c1)OCO2 | 1.7
21 | COc1ccc(NC(=O)N(C)C[C@@H]2Oc3c(NC(=O)Nc4c(C)noc4C)cccc3C(=O)N([C@@H](C)CO)C[C@@H]2C)cc1 | -0.4
22 | C[C@@H]1CN([C@H](C)CO)C(=O)c2cc(NC(=O)Nc3ccc(C(F)(F)F)cc3)ccc2O[C@H]1CN(C)C(=O)Nc1ccc2c(c1)OCO2 | 0.1
23 | C[C@@H]1CN([C@@H](C)CO)C(=O)c2cc(NC(=O)CCCN(C)C)ccc2O[C@@H](C)CCCCO[C@@H]1CN(C)C(=O)Nc1ccc2c(c1)OCO2 | -1.0
24 | COc1ccc(NC(=O)Nc2cccc3c2O[C@H](CN(C)C(=O)NC2CCCCC2)[C@H](C)CN([C@H](C)CO)C3=O)cc1 | -0.7
25 | COc1ccc(S(=O)(=O)Nc2cccc3c2O[C@@H](CN(C)S(C)(=O)=O)[C@@H](C)CN([C@@H](C)CO)C3=O)cc1 | -0.3
26 | Cc1noc(C)c1NC(=O)Nc1ccc2c(c1)C(=O)N([C@H](C)CO)C[C@H](C)[C@@H](CN(C)C(=O)Nc1ccc(F)cc1)OCCCC[C@@H](C)O2 | -1.3
27 | C[C@@H]1CN([C@H](C)CO)C(=O)c2cccc(NS(=O)(=O)c3ccccc3)c2O[C@H]1CN(C)C(=O)NC1CCCCC1 | -0.4
28 | C[C@H]1CN([C@@H](C)CO)C(=O)c2cc(NS(=O)(=O)c3ccccc3)ccc2O[C@@H]1CN(C)Cc1ccc(Oc2ccccc2)cc1 | 0.6
29 | C[C@@H]1CN([C@@H](C)CO)C(=O)c2cc(NC(=O)Nc3cccc4ccccc34)ccc2O[C@@H](C)CCCCO[C@@H]1CN(C)C(=O)CCCN(C)C | 0.7
30 | C[C@@H]1CN([C@H](C)CO)C(=O)c2cccc(NS(=O)(=O)c3cccs3)c2O[C@@H]1CN(C)C | 0.6
31 | CC(C)NC(=O)N(C)C[C@@H]1Oc2ccc(NC(=O)CCN3CCOCC3)cc2C(=O)N([C@H](C)CO)C[C@@H]1C | -0.1
32 | C[C@@H]1CCCCO[C@H](CN(C)Cc2ccc3c(c2)OCO3)[C@@H](C)CN([C@@H](C)CO)C(=O)c2cc(NS(=O)(=O)c3ccc(F)cc3)ccc2O1 | -0.4
33 | COc1ccc(NC(=O)N(C)C[C@H]2Oc3ccc(NC(=O)NC4CCCCC4)cc3C(=O)N([C@@H](C)CO)C[C@H]2C)cc1 | 0.8
34 | C[C@H](CO)N1C[C@H](C)[C@@H](CN(C)Cc2ccc3c(c2)OCO3)Oc2ccc(NC(=O)CCCCCC(=O)Nc3ccccc3N)cc2CC1=O | -0.6
35 | Cc1noc(C)c1NC(=O)N(C)C[C@@H]1OCCCC[C@H](C)Oc2ccc(NS(=O)(=O)c3cccs3)cc2C(=O)N([C@H](C)CO)C[C@@H]1C | 1.0
36 | C[C@H](CO)N1C[C@H](C)[C@H](CN(C)C(=O)C2CCCCC2)OCc2cn(nn2)CCCC1=O | -2.0
37 | CCOc1ccc(N2C(=O)CS(=O)(=O)C2c2ccccc2)cc1 (stereo not drawn) | 0.5
38 | C[C@@H]1CN([C@@H](C)CO)C(=O)c2cc(NC(=O)Nc3ccccc3)ccc2O[C@@H](C)CCCCO[C@@H]1CN(C)S(=O)(=O)c1ccc(Cl)cc1 | -1.3
39 | C[C@H]1CN([C@@H](C)CO)C(=O)c2cc(NC(=O)Nc3ccc4c(c3)OCO4)ccc2O[C@@H]1CN(C)Cc1ccc2c(c1)OCO2 | 0.9
40 | Cc1noc(C)c1S(=O)(=O)Nc1ccc2c(c1)C(=O)N([C@@H](C)CO)C[C@H](C)[C@@H](CN(C)C(=O)Nc1cccc3ccccc13)OCCCC[C@H](C)O2 | 1.5

Grouped by structure: the entries above with a thiophene ring, fused or not.
cpd | Compound | A1 apoptosis 2
4 | C[C@@H]1CN([C@@H](C)CO)C(=O)c2cc(NS(C)(=O)=O)ccc2O[C@@H](C)CCCCO[C@@H]1CN(C)S(=O)(=O)c1cccs1 | 0.2
7 | C[C@H](CO)N1C[C@H](C)[C@@H](CN(C)C(=O)Cc2ccccc2)OCCCC[C@H](C)Oc2ccc(NS(=O)(=O)c3cccs3)cc2C1=O | -0.5
30 | C[C@@H]1CN([C@H](C)CO)C(=O)c2cccc(NS(=O)(=O)c3cccs3)c2O[C@@H]1CN(C)C | 0.6
35 | Cc1noc(C)c1NC(=O)N(C)C[C@@H]1OCCCC[C@H](C)Oc2ccc(NS(=O)(=O)c3cccs3)cc2C(=O)N([C@H](C)CO)C[C@@H]1C | 1.0

(list continues)
cpd | Compound | A1 apoptosis 2
41 | C[C@H]1CCCCO[C@@H](CN(C)Cc2ccc3c(c2)OCO3)[C@@H](C)CN([C@@H](C)CO)C(=O)c2cc(NC(=O)C3CCCCC3)ccc2O1 | -0.4
42 | Cc1noc(C)c1S(=O)(=O)N(C)C[C@@H]1Oc2ccc(NC(=O)C3CCCCC3)cc2CC(=O)N([C@H](C)CO)C[C@H]1C | -1.5
43 | CCN(CC)c1ccc(/C=N/NC(=O)c2ccccn2)c(O)c1 | -10
44 | COc1ccc(NC(=O)N(C)C[C@@H]2Oc3c(NC(=O)C4CCCCC4)cccc3C(=O)N([C@@H](C)CO)C[C@@H]2C)cc1 | -0.3
45 | O=C1N(Cc2ccccc2)Cc2ccccc2[C@H]2OC(c3ccc(OCCCO)cc3)=N[C@@]12CCS(=O)(=O)c1ccccc1 | -1.0
46 | Cc1ccc(S(=O)(=O)N(C)C[C@H]2Oc3c(NC(=O)C4CCCCC4)cccc3C(=O)N([C@@H](C)CO)C[C@H]2C)cc1 | 0.4
47 | COc1ccc(S(=O)(=O)N(C)C[C@H]2OCCCC[C@H](C)Oc3ccc(NC(=O)Nc4cccc5ccccc45)cc3C(=O)N([C@H](C)CO)C[C@@H]2C)cc1 | 0.1
48 | COc1ccc(CN(C)C[C@H]2Oc3ccc(NC(=O)Cn4cnnn4)cc3C(=O)N([C@H](C)CO)C[C@@H]2C)cc1 | 0.1
49 | C[C@H]1CN([C@@H](C)CO)C(=O)Cc2cc(NS(=O)(=O)c3cccs3)ccc2O[C@H]1CN(C)Cc1ccncc1 | -0.6
50 | C[C@H]1CN([C@@H](C)CO)C(=O)c2cccc(NS(=O)(=O)c3ccc(F)cc3)c2O[C@@H]1CN(C)Cc1ccc(C(=O)Nc2ccccc2N)cc1 | 0.6
51 | Cc1noc(C)c1S(=O)(=O)Nc1ccc2c(c1)C(=O)N([C@@H](C)CO)C[C@@H](C)[C@@H](CN(C)C(=O)CCCN(C)C)OCCCC[C@H](C)O2 | 0.1
52 | O=C(NO)c1ccc(C(=O)N/N=C/c2ccc(-c3ccccc3)cc2)cc1 | -7.1
53 | C[C@@H]1CN([C@@H](C)CO)C(=O)c2cc(NS(=O)(=O)c3cn(C)cn3)ccc2O[C@@H](C)CCCCO[C@H]1CN(C)C(=O)c1ccncc1 | 0.8
54 | COc1ccc(NC(=O)N(C)C[C@@H]2Oc3c(NC(=O)NC(C)C)cccc3C(=O)N([C@H](C)CO)C[C@@H]2C)cc1 | 0.4
55 | Cc1noc(C)c1S(=O)(=O)Nc1ccc2c(c1)C(=O)N([C@H](C)CO)C[C@@H](C)[C@@H](CN(C)C(=O)Cc1ccccc1)OCCCC[C@@H](C)O2 | 0.0
56 | C[C@H](CO)N1C[C@H](C)[C@H](CN(C)S(=O)(=O)c2cccs2)Oc2ccc(NC(=O)C3CC3)cc2CC1=O | 1.3
57 | Cc1ccc(S(=O)(=O)N(C)C[C@@H]2Oc3ccc(N(C)C)cc3CC(=O)N([C@@H](C)CO)C[C@@H]2C)cc1 | -0.6
58 | CC(C)NC(=O)N(C)C[C@H]1Oc2ccc(N(C)C)cc2C(=O)N([C@@H](C)CO)C[C@@H]1C | -0.3
59 | CC(C)NC(=O)Nc1ccc2c(c1)C(=O)N([C@H](C)CO)C[C@H](C)[C@H](CN(C)CC1CCCCC1)OCCCC[C@H](C)O2 | -0.3
60 | C[C@H](CO)N1C[C@H](C)[C@H](CN(C)C(=O)Nc2ccc(C(F)(F)F)cc2)Oc2c(NC(=O)NC3CCCCC3)cccc2C1=O | 0.9

Fetched one by one from above:
cpd | Compound | A1 apoptosis 2
47 | COc1ccc(S(=O)(=O)N(C)C[C@H]2OCCCC[C@H](C)Oc3ccc(NC(=O)Nc4cccc5ccccc45)cc3C(=O)N([C@H](C)CO)C[C@@H]2C)cc1 | 0.1
54 | COc1ccc(NC(=O)N(C)C[C@@H]2Oc3c(NC(=O)NC(C)C)cccc3C(=O)N([C@H](C)CO)C[C@@H]2C)cc1 | 0.4

The listing continues:
cpd | Compound | A1 apoptosis 2
61 | Cc1ccc(S(=O)(=O)Nc2ccc3c(c2)C(=O)N([C@@H](C)CO)C[C@@H](C)[C@@H](CN(C)C(=O)Nc2c(C)noc2C)OCCCC[C@H](C)O3)cc1 | 1.1
62 | Cc1noc(C)c1NC(=O)Nc1ccc2c(c1)C(=O)N([C@@H](C)CO)C[C@@H](C)[C@H](CN(C)C(=O)CCCN(C)C)OCCCC[C@H](C)O2 | -0.7
63 | COc1ccc(CN(C)C[C@@H]2OCCCC[C@H](C)Oc3ccc(NS(C)(=O)=O)cc3C(=O)N([C@@H](C)CO)C[C@@H]2C)cc1 | 0.2
64 | CC(C)NC(=O)Nc1ccc2c(c1)CC(=O)N([C@@H](C)CO)C[C@H](C)[C@@H](CN(C)Cc1ccc(C(=O)O)cc1)O2 | 0.0
65 | C[C@H](CO)N1C[C@H](C)[C@H](CN(C)C(=O)c2ccccc2)OCCCC[C@H](C)Oc2ccc(NS(=O)(=O)c3ccc(F)cc3)cc2C1=O | -0.1
66 | C[C@@H]1CN([C@H](C)CO)C(=O)c2cc(NC(=O)Nc3ccc4c(c3)OCO4)ccc2O[C@H]1CN(C)C(=O)NC1CCCCC1 | -0.8
67 | COc1ccc(CN(C)C[C@@H]2Oc3ccc(NC(=O)Nc4c(C)noc4C)cc3C(=O)N([C@H](C)CO)C[C@@H]2C)cc1 | -1.3
68 | COc1cc(/C=N/NC(=O)c2ccccc2O)c(Br)cc1O | -6.3
69 | C[C@H]1CCCCO[C@H](CN(C)C)[C@@H](C)CN([C@@H](C)CO)C(=O)c2cc(NC(=O)Cc3ccccc3)ccc2O1 | 0.2
70 | COc1ccc([Si](C)(C)[C@H]2[C@H](CCn3cc(CCO)nn3)O[C@@]3(C(=O)N(Cc4ccc(N5CCOC5=O)cc4)c4ccccc43)[C@@H]2C)cc1 | 0.0

The list is partial (hit frequency here may not be typical).
